VACV Venus inh – vaccinia inhibition (Venus reporter). Potency, µM (series often up to 36.5 µM), inactives show at the highest dose activity change, negative = inhibition, actives largely listed as inhibitors. hit rate 0.46% among 330,000. Vaccinia virus Venus reporter expression, fluorescence. AID 720580; active means well fitted inhibition curve with a large enough effect; inconclusive means small, poorly fitted or top-dose-only effect; inactive means no such curve, though single readings can be large or run the other way; tested in A549 cells; further: nearly all actives have a fitted effect of over 30% in size; inactives centre near -10
VACV mCherry inh – inhibitors of vaccinia virus infection (mCherry reporter signal). AID 720579. hit rate 0.63% among 310,000. Vaccinia virus mCherry reporter infection, fluorescence; about a quarter of the inactives have no number. Potency, µM (titrated, usually from 36.5 µM), inactives show at the top dose activity change, negative = inhibition, actives largely listed as inhibitors; active = well fitted inhibition curve with a large enough effect; inconclusive = small, poorly fitted or top-dose-only effect; inactive = no such curve, though single readings can be large or run the other way; tested in A549 cells; further: nearly all actives have a fitted effect of over 35% in size; inactives centre near -10
* hit, by the source's call; i = inactive; ? = inconclusive; / = not tested or not shown; [ ] = dose if it differs, or a comment. On the % scale 0 is the no-effect control and ±100 the full control effect; potency means the concentration at half of the fitted maximal effect.

Molecule	VACV mCherry inh	VACV Venus inh
COc1cc2c(cc1OC)CN(c1nc(CN3CCCC3)nc3sc(C)c(C)c13)CC2	-15%	-13%
O=C(CN1C(=O)C2CCCCC2C1=O)Nc1nc(-c2ccccn2)cs1 (stereo unspecified)	?	?
O=c1[nH]c(SCc2cccc(Cl)c2)nc2c1CCC2	-8%	1%
O=C(NCC1CCCO1)c1ccc2nc(N3CCCCC3)sc2c1 (stereo unspecified)	14%	-15%
Cc1c(N)cc(C(=O)N2CCOCC2)cc1[N+](=O)[O-]	-19%	-6%
Cc1ccc(-c2cc(C(=O)N3CCN(S(=O)(=O)c4ccc(Br)cc4)CC3)[nH]n2)c(C)c1	-15%	-13%
Cc1ccc(NN2C(=O)C=C(c3ccccc3)C2=O)cc1	-2%	-17%
CC1(C(=O)OCC(=O)Nc2cccc(S(=O)(=O)NC3=NCCCCC3)c2)CC1(Cl)Cl (stereo unspecified)	i	-13%
COCCNC(=O)C(OC(=O)c1ccco1)c1ccccc1Cl (stereo unspecified)	i	-14%
CSC1=NC(=O)/C(=C/c2ccc(SC)cc2)S1	-13%	-6%
CCOc1cc(/C=C2\C(=O)N(Cc3ccco3)C(C)=C2C(=O)OC)ccc1O	-6%	-12%
COc1ccc(-c2nn(CCC(=O)O)cc2/C=N/NC(N)=S)cc1	-11%	-7%
CC1(C(=O)O)CCN1C(=O)c1cccc(OC(F)(F)F)c1 (stereo unspecified)	32%[activator]	4%
CCOc1ccc(C2C(C#N)=C(N)N(N(C)C)C3=C2C(=O)CC(C)(C)C3)cc1 (stereo unspecified)	-9%	-11%
COc1ccc(NP(=O)(Oc2ccc(Cl)cc2)Oc2ccc(Cl)cc2)cc1OC	-21%	?
CCC(=O)Oc1c(Sc2ccc(Cl)cc2)c(C)nn1-c1ccccc1	6%[7.34 µM]	6%[7.34 µM]
Cc1cccc(N2CCN(S(=O)(=O)c3ccc(F)c(C(=O)Nc4cccc(Cl)c4C)c3)CC2C)c1 (stereo unspecified)	-11%	-12%
COc1ccc(S(=O)(=O)N(C)C[C@H]2Oc3c(NC(=O)NC(C)C)cccc3C(=O)N([C@H](C)CO)C[C@@H]2C)cc1	i	-14%
Cc1cc(C)c2c(=O)[nH]c(=O)n(Cc3ccccc3)c2n1	-11%	-14%
COc1cc(C#N)ccc1OC(=O)C1CCN(C(=O)c2ccc(F)cc2)CC1	-26%	-16%
COc1ccc(C(=O)N2CCN(c3c(C)cccc3C)CC2)cc1OC	-17%	-1%
C#CCOCCOCCOCCNc1nc(N2CCOCC2)nc(N2CCN(C(=O)[C@H](Cc3ccc(O)cc3)n3cc(CCO)nn3)CC2)n1	i	-6%
Cc1cc(NC(=O)c2ccccc2)nc2c1c(=O)oc1ccccc12	-8%	-9%
N#Cc1ccccc1OCc1cn(CC(=O)c2ccc(O)cc2)nn1	i	-6%
CCOc1ccc(C(O)Cc2nc3ccccc3n2C)cc1 (stereo unspecified)	-3%	-11%

Carrying on.
Molecule	VACV mCherry inh	VACV Venus inh
Cc1nonc1C1CCCN1C(=O)c1cc(COc2ccc(F)cc2F)on1 (stereo unspecified)	-4%	-7%
O=C(O)CSCC(=O)NCc1ccc(Cl)cc1	-2%	-5%
CCCCOC(=O)Nc1sc2nc(C)cc(C)c2c1-n1cccc1	/	1%
COc1cc(=O)n(C)c2c(OCC3OC(C)(C)OC3(C)C)cccc12 (stereo unspecified)	?	?
Cc1ccc2sc(-c3ccc(NC(=O)/C=C\C(=O)O)cc3)nc2c1	-20%	-16%
COc1ccc(OC)c(CNC(=O)CCCn2c(=O)c3cccn3c3cccnc32)c1	-15%	-17%
O=C(CSc1nnc(CNC(=O)C23CC4CC(CC(C4)C2)C3)n1-c1ccc(F)cc1)Nc1ccc(F)cc1	-9%	-25%
CCc1nnc2c3cnn(-c4ccccc4)c3ncn12	?	-2%
CC(C)(C)[C@@H]1C=C(C(=O)O)[C@H](c2ccc(Cl)cc2)N1S(=O)(=O)c1ccccc1	-21%	-18%
O=C(Cc1ccccc1)Nc1scc(-c2ccccc2)c1C(=O)N1CCOCC1	-4%	-13%
O=C(Nc1ccc(-c2nc3cc(Cl)ccc3c(=O)o2)cc1)c1ccco1	-4%	1%
CCCCn1c(O)c(C(CC)=NC(C)c2ccccc2)c(=O)[nH]c1=O (stereo unspecified)	-10%	-29%
CN1CC(=O)N(CC(=O)Nc2ccc(Cl)c(C(F)(F)F)c2)C1=O	-22%	-9%
Cc1ccc(-c2nnc(Nc3ccc(C(=O)N(C)C)cc3)c3ccccc23)cc1S(=O)(=O)NC(C)(C)CO	-1%	-4%
O=C(COc1ccc(Cl)cc1Cl)NN=C1c2ccccc2-c2ccccc21	-11%	-14%
CC(C)CNC(=O)C(=O)NNC(=O)c1ccco1	-4%	-1%
COc1cccc(NC(=O)N2CCc3nc(Nc4ccc(C(C)C)cc4)ncc3C2)c1	-2%	?
CC(C)(C)OC[C@H](NC(=O)c1[nH]cnc1C(=O)Nc1ccccc1F)C(=O)OC(C)(C)C	-15%	?
CC(=O)Nc1ccc(CNc2nc(NCc3cccs3)nc3ccsc23)cc1	-21%	-5%
CC1=C(c2ccccc2)CCC1=O	i	-9%
O=C(Nc1ccc(N2CCOCC2)c(Cl)c1)c1ccc([N+](=O)[O-])o1	?	?
CC12CC3(C)CC(C)(C1)CC(C(=O)NC(=S)NC(C)(C)C)(C2)C3	-22%	-6%
O=C(O)CCCn1nc(-c2ccccc2)c2ccccc21	i	-3%
CC(=O)NCC(=O)OCC(=O)Nc1ccc(C(C)=O)cc1	-1%	13%
Cc1cc(C(=O)OCC(=O)c2cccc([N+](=O)[O-])c2)c2cccc(C)c2n1	/	-10%

Following part
Molecule	VACV mCherry inh	VACV Venus inh
COC(=O)c1ccccc1NC(=O)CSc1nc(O)c(-c2ccccc2)c(=O)[nH]1	-15%	0%
Cc1sc2cc3c(c(C(=O)c4ccccc4)[n+]2c1C)-c1cccc2cccc-3c12	-24%	-6%
O=C(Nc1ccc2[nH]c(=O)[nH]c2c1)c1ccc(Cl)c(Cl)c1	-2%	-2%
O=C(Nc1ccccc1OC(F)F)c1oc2ccccc2c1COc1ccccc1	-15%	-14%
CC(C)C(O)(C#CCN1CCCC1)c1ccccc1 (stereo unspecified)	/	-4%
CC(C)CCNC(=O)/C=C/c1ccc(Br)cc1	-16%	-7%
COc1ccc(CNC(=O)CCc2nc(-c3ccc(OC)cc3)no2)cc1	0%	-1%
C=CCN=C1N[C@@H](c2ccc(Br)cc2)C(C(=O)OC)=C(C)N1Cc1ccccc1	-15%	-25%
COc1cccc(-n2c(SCC(=O)Nc3cc(C)on3)nc3c([nH]c4ccccc43)c2=O)c1	i	-14%
O=S(=O)(c1ccc(-c2cnc(C3CC3)o2)cc1)N1CCN(c2ccccc2F)CC1	-11%	-1%
COc1cc(CNC(=O)Nc2nnc([C@@H]3C[C@H](O)[C@@H](CO)O3)s2)cc(OC)c1OC	38%[activator]	-9%
Fc1ccc2[nH]c3c(c2c1)CN(C(=S)NCc1ccccc1)CC3	?	-24%
N#Cc1c(NC(=O)CSc2nc(-c3ccccc3)cc(C(F)(F)F)n2)sc2c1CCC2	-5%	-9%
CCCCC(CC)C(=O)Oc1ccc(O)c(C(C)(C)C)c1 (stereo unspecified)	?	?
O=C(Nc1ccc(SC(F)F)cc1)C1CC(=O)N(Cc2ccccc2)C1 (stereo unspecified)	-2%	-14%
CCC(NS(=O)(=O)c1ccc(C)cc1)C(=O)N1CCC2(O)CCCCC2C1 (stereo unspecified)	/	9%
Cc1ccc(NC(=O)c2cc(NC(=O)C3CC=CCC3C(=O)O)ccc2N2CCOCC2)cc1 (stereo unspecified)	/	-2%
COCCn1c(C)cc(C(=O)COC(=O)CNC(=O)c2ccccc2)c1C	i	-11%
CC(CN1CCOCC1)C(=O)c1ccccc1 (stereo unspecified)	-13%	-7%
CCCCC[C@@H](C)N1C[C@@H](COCc2ccccc2)Oc2cc(N3CCC[C@@H]3COC)ccc2S1(=O)=O	4%	-8%
COC(=O)c1sc(S(=O)(=O)Nc2ccc(C)cc2)c(C(=O)OC)c1C	-11%	-1%
COc1cccc(N2CCN(C(=O)c3ccc(CS(=O)c4ccccc4C)o3)CC2)c1 (stereo unspecified)	i	-29%
COc1ccccc1OCC(=O)NNC(=O)C(=O)N1CCCC1	-27%	-18%
Cc1oc2c(c(C)cc3oc(=O)c(CC(=O)NCCc4ccccc4)c(C)c32)c1C	-7%	1%
COC(=O)C[C@@H]1CC[C@@H](NS(=O)(=O)c2ccc(OC)cc2)[C@@H](CO)O1	8%	-7%

Other entries.
Molecule	VACV mCherry inh	VACV Venus inh
O=C(c1ccco1)n1nc(NCc2ccccc2)nc1NCc1ccccc1	/	-6%
CCCCn1c(N)c(N(CCC(C)C)C(=O)COC(=O)c2ccccc2)c(=O)[nH]c1=O	7%	-1%
COc1ccccc1CNC(=O)c1oc2ccc(S(=O)(=O)N3CCOCC3)cc2c1C	i	-21%
CC1CCN(c2c(NCc3ccc(C(=O)NCC4COc5ccccc5O4)cc3)c(=O)c2=O)CC1 (stereo unspecified)	5%	-5%
CCc1c(C)sc2c1CCN(Cc1ccccc1C#N)C2c1ccccc1 (stereo unspecified)	-19%	-6%
O=C1c2ccccc2C(=O)N1CCn1nc(Cl)nc1Cl	/	-29%
NC(=O)c1c(NC(=O)c2cccc(N3C(=O)CCC3=O)c2)sc2c1CCCCC2	-7%	0%
Cc1cc(C)n2nc(SCC(=O)NC3(C#N)CCCCC3)nc2n1	i	-10%
Cc1c2cnn(CC(=O)N3CCN(c4ccc(F)cc4)CC3)c(=O)c2c(C)n1Cc1ccc(F)cc1	-7%	-14%
Cc1ccc(C)c(N(CC(=O)N/N=C/c2ccc(-c3ccc([N+](=O)[O-])cc3)o2)S(=O)(=O)c2ccccc2)c1	-17%	-18%
Nc1ccccc1SCC(=O)Nc1ccc2c(c1)OCCO2	?	0%
CC(=O)Nc1ccc(NS(=O)(=O)c2cc(Cl)ccc2Cl)cc1	-2%	-13%
Cc1cc2ncn(C(=O)N3CCCCCC3)c2cc1C	i	-10%
COc1ccc(-c2noc(CCC(=O)NCCc3ccccc3)n2)cc1	i	-21%
COc1ccc(Cc2nc(=S)[nH][nH]2)cc1Br	-3%	2%
CCC(=O)Nc1ccc(S(=O)(=O)Nc2ccccn2)cc1	-14%	-20%
Cc1nnsc1C(=O)N1CCCC(N2CCN(c3ccc(F)cc3)CC2)C1 (stereo unspecified)	i	-13%
Nn1c(SCC(=O)Nc2ccc(S(N)(=O)=O)cc2)nnc1-c1ccco1	-9%	-9%
CSc1nc2c(c(=O)[nH]1)C(c1cccc(Cl)c1)CC(=O)N2 (stereo unspecified)	?	-8%
Cc1cccc2c(N=O)c(O)[nH]c12	-12%	2%
CCOC(=O)C(O)(c1ccc(N(C)C(=O)c2ccc(Cl)c(Cl)c2)cc1)C(F)(F)F (stereo unspecified)	-27%	-13%
CN1CCN(c2nc([N+](=O)[O-])nn2C)CC1	-13%	4%
CN1CCN(c2c[nH]c(=O)[nH]c2=O)CC1	i	-13%
CCOP(=O)(/C(C#N)=C(/O)c1ccccc1)c1ccccc1 (stereo unspecified)	-3%[7.34 µM]	-4%[7.34 µM]
Cc1ccc(NC(=O)CN2CCOCC2)cc1C	-5%	1%

The listing continues:
Molecule	VACV mCherry inh	VACV Venus inh
CN1CCc2c(OCc3ccc(F)cc3)cccc2C1=O	-2%	-5%
CCCC1=Nc2cc(C(=O)NCCOC)ccc2Sc2ccccc21	?	-27%
Cc1ccc(NC(=O)CCc2nc3sc4c(c3c(=O)[nH]2)CCCC4)nc1	i	-2%
C[C@H](CO)N1C[C@H](C)[C@@H](CN(C)C(=O)Oc2ccc3ccccc3c2)OCc2cn(nn2)CCCC1=O	i	-7%
CCCS(=O)(=O)N1CCN(CCCc2ccccc2)CC1	-4%	7%
COC(=O)[C@@]1(Cc2ccc(OC)cc2)[C@H]2c3cc(C(=O)N4CCCC4)n(CCN4CCOCC4)c3C[C@H]2CN1C(=O)c1ccccc1	-10%	4%
CN(C(=O)COc1ccccc1C(=O)NCCOc1ccccc1)c1ccccc1	?	11µM*
COCCCn1c(=O)c2ccccc2n(CC(=O)NCCC2=CCCCC2)c1=O	-6%	-1%
COc1ccc(OCCSc2nnc(Cc3cccc4ccccc34)n2N)cc1	-10%	-13%

Screening data (PubChem BioAssay)

An unsorted share of the library, and some 0.87% of all compounds hit somewhere here.
